# RanGTP-Imp inh – inhibitors of RanGTP-importin-beta interaction, primary screen, biochemical, FRET, CFP-Ran, YFP-importin-beta, homogeneous. cell-free CFP-Ran/YFP-importin-beta FRET ratio. 300,000 tested, 1.1% active. Ran GTPase (GTP-bound) - importin-beta complex. inhibition, % (concentration not given with the values);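 active means most replicates above 15%; inconclusive means exactly half above 15%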;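 further: 0% = DMSO wells and 100% = Ran loaded with GDP instead of GTP; wells of about 40 µL received 100 nL stock; the first replicate is given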
# Calb FLC – C. albicans growth inhibition with fluconazole, primary screen, CaCi-2 strain, Alamar Blue fluorescence; 300,000 tested, 0.57% active; C. albicans CaCi-2 (fluconazole-resistant clinical isolate) + fluconazole, 48 h; AID 1979, 2009; growth inhibition, % (no concentration beside the values);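 active means most replicates above 75%; inconclusive means exactly half above 75%; inactive means most below 75%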;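 further: all wells also contain fluconazole at 8 µg/ml as a sub-toxic cotreatment; 0% = median of DMSO wells and 100% = median of geldanamycin control wells; wells of about 8 µL received 7.5 nL stock; the first replicate is given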
# MLL AF4-AF9 inh – inhibitors of AF4 peptide binding to AF9, primary screen, biochemical, AlphaScreen, biotin-AF4 peptide, FLAG-AF9, single point. Protein AF-9 (Homo sapiens), P42568. AID 651704, 2012. 350,000 tested, 0.47% active. inhibition, % at 10 µM;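 active means every replicate reaching a set inhibition limit, whatever the replicate mean, cut at about 25% in these data; inconclusive means mean inhibition reaches that limit but some replicates miss it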;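 further: 0% = plate neutral control median and 100% = total signal loss; the record names both 10 and 1 µM as test concentration; the first replicate is given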
# Target sequence (P42568 whole entry, looked up): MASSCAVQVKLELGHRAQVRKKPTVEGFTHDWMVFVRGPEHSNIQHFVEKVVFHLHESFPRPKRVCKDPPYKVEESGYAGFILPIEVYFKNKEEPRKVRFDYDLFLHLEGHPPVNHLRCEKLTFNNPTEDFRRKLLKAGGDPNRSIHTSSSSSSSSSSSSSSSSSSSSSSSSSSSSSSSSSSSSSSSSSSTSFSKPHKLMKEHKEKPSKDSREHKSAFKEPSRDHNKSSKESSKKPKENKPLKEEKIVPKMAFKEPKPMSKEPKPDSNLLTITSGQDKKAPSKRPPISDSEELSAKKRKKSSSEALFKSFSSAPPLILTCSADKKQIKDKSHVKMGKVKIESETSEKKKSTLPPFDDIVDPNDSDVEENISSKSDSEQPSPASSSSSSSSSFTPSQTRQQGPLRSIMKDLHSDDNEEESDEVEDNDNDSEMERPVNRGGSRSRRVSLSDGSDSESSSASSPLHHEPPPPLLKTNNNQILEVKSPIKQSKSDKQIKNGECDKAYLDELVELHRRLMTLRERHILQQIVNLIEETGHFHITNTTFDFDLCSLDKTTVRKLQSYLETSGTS
# T cruzi inh – inhibitors of intracellular T. cruzi growth, primary screen, luminescence, NIH3T3 host cells | T. cruzi beta-gal in NIH3T3, 90 h | inhibition, % (test concentration not listed) | AID 1885, 2009 | 300,000 tested, 1.4% active;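 active means mean inhibition across valid replicates above about 55%, limit read from the data; inconclusive means mean below that limit but half or more replicates reach it; inactive means mean below it, under half of replicates reach it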;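 further: signal also drops with host cell toxicity which is not excluded here; 0% = plate median of DMSO wells and 100% = zero luminescence signal; higher percent means less beta-gal luminescence so fewer parasites; stock transfer was 50 nL into about 50 µL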
# Vif TR-FRET – inhibitors of Vif binding to APOBEC3G peptide, primary screen, biochemical, TR-FRET, GST-Vif 1-94, biotin-A3G peptide, dose response retest (AID 1117319); Virion infectivity factor (Human immunodeficiency virus type 1 group M subtype B (isolate …; TR-FRET GST-Vif / biotin-A3G peptide binding; higher % means a stronger effect; test concentration not given here; strong numbers were not always called active; inhibition, %, or IC50 in µM where a hit was titrated; 260,000 tested, 0.57% active;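 active means above the screen mean plus three standard deviations and confirmed in dose response; inconclusive means results disagree or hit not tested in dose response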;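 further: Vif residues 1-94 fused to GST binding biotinylated APOBEC3G peptide 110-148; 0% = full assay without inhibitor and 100% = GST in place of GST-Vif; retest series ran down from 100 µM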
# A1 inh – caspase 3/7 activation in MEF A1-2A-BIM cells, primary screen, A1 inhibitor project, cell-based, luminescence, HTS | 330,000 tested, 0.066% active | AID 2462, 2010 | Caspase-Glo 3/7 luminescence, 3 h; percent of clofoctol response, vehicle zero | caspase activation, % (test concentration not listed);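 active means over half of replicate activation scores above 10%, or exactly half above 10 with the replicate mean above 10; inconclusive means replicate mean below 10 yet half the replicates above 10; inactive means over half of replicates below 10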;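 further: wells of about 30 µL received 50 nL stock; many hits fall short of the cut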
# rRNA inh HTS – reduced GFP signal of wild-type E. coli, primary screen, bacterial rRNA inhibitor project, GFP/RFP fluorescence, OD600, single point; E. coli WT GFP vs humanized-ribosome RFP mutants, 24 h; stronger effect = lower value; DMSO median 0, no signal -100; GFP signal change (wild-type ribosome), % (concentration not given with the values); 350,000 tested, 1.6% active;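 active means significant combined selectivity score with lowered wild-type GFP, culture density cut under 30%, mutant RFP and density less affected; inactive means any of these conditions unmet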; further: one replicate is shown; some compounds called inactive have numbers as strong as hits
# Beta apoptosis – inhibitors of cytokine-induced beta cell apoptosis, primary screen, luminescence; INS-1E cytokine-induced death, ATP luminescence, 48 h; percent of positive-control rescue, neutral wells zero; protection from apoptosis, % (test concentration not listed); 300,000 tested, 0.8% active;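 active means all replicates at 75% or more, or half of them and the mean; inconclusive means half reach 75% but not the mean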;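 further: 0% = cytokine-treated negative control wells and 100% = positive control rescue; higher means more ATP so stronger rescue from cytokine killing; wells of about 40 µL received 100 nL stock; the first replicate is given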
# rRNA inh HTS OD600 – further read-out of rRNA inh HTS, marked with its call; OD600 change, %; measured here: OD600 growth;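 optical density of the mix in the first replicate; 0 = DMSO median and -100 = no signal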
# rRNA inh HTS RFP – second read-out of rRNA inh HTS, no call of its own (marks repeat the call); RFP signal change, %; measured here: RFP humanized mutant strains;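 first replicate; 0 = DMSO median and -100 = no signal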
# * marks the source's active call; other numbers are inactive results; ? = inconclusive; . = no result given.
canonical_smiles | RanGTP-Imp inh | Calb FLC | MLL AF4-AF9 inh | T cruzi inh | Vif TR-FRET | A1 inh | rRNA inh HTS | rRNA inh HTS OD600 | rRNA inh HTS RFP | Beta apoptosis
CC1CCCCN1C(=O)COC(=O)C1CCN(S(=O)(=O)c2ccc3c(c2)OCCO3)CC1 (stereo not given) | -2.3 | 3 | -0.4 | 2 | 3% | -0.1 | 6 | 4 | 0.3 | 0
O=C(/C=C/c1ccccc1)N1CCC(Cc2ccccc2)CC1 | 7.7 | 2 | . | 4 | -1% | -1.2 | . | . | . | -4
CCOc1ccc(NC(=O)C(C)Sc2nccn2C)cc1 (stereo not given) | -0.5 | -5 | -0.1 | 1 | . | -0.3 | 1 | 14 | -0.4 | 0
O=C(NC1CCCc2ccccc21)c1ccccc1Br (stereo not given) | 0.8 | -36 | -0.6 | 1 | 11% | 1.3 | 4 | 3 | 6.6 | .
C=CCN1C(=O)CN=C1Nc1ccc(F)cc1 | 0.9 | 3 | -2.5 | 12 | 0% | -1.1 | 2 | 20 | 2.7 | -1
CC1(C)CC(=O)c2sc(NC(=O)CCS(=O)(=O)c3ccccc3)nc2C1 | 11 | 18 | 2.7 | -10 | -3% | 0.8 | 4 | 0 | 2.0 | -25
COc1ccc(NC(=O)CN(C)C(=O)Cc2n[nH]c(=O)c3ccccc23)cc1 | -2.0 | -2 | -1.2 | -7 | 0% | 1.0 | 11 | 19 | 1.1 | 2
Cc1cc(C)nc(N2N=C(C(C)(C)C)CC2=O)n1 | -0.4 | 12 | -67 | . | 65% | 0.8 | 8 | 3 | -5.0 | -5
CC(=O)c1cccc(N/C=C\c2nnnn2-c2ccc(F)cc2)c1 | -2.3 | -4 | . | 6 | -16% | 1.3 | . | . | . | 1
COc1ccc(C)cc1NC(=O)COC(=O)c1ccc(OCc2ccc(Cl)cc2Cl)c(OC)c1 | 1.4 | -27 | 11 | 2 | . | -0.6 | 10 | 11 | 1.4 | -2
Cc1ccc(C(=O)Nc2nc(N)n(-c3ccccc3)n2)cc1 | 4.5 | -2 | -3.6 | -1 | . | 0.5 | 1 | -18 | 4.0 | -1
CCN1CCN(Cc2c3ccccc3cc3ccccc23)CC1 | -3.9 | -7 | 13 | -8 | . | -2.7 | 16 | 12 | 1.4 | 3
CC(C)(C)OC(=O)C[C@@H]1C/C=C\C[C@@H](CC(=O)NCCO)C(=O)N2CCC[C@H]2COC1=O | . | . | -0.2 | . | . | 1.8 | 8 | 6 | 16 | -6
CCCn1nc2cc(C(=O)NCc3ccc(OC(F)(F)F)cc3)ccc2c1OCC | 1.2 | -2 | 0.4 | 14 | -5% | 0.9 | -8 | -6 | 11 | -7
CC(=N\NC(=O)c1ccccc1)/C(=N/O)C(=O)Nc1ccccc1 | 0.6 | 4 | 0.9 | -10 | . | -0.3 | -3 | 6 | 7.6 | -3
CSc1ccc(S(=O)(=O)NCC(=O)OCC(=O)N2CCCC2=O)cc1[N+](=O)[O-] | 0.8 | 0 | -19 | 1 | 4% | 0.3 | 0 | 7 | -4.0 | -6
Cc1ccc(N(C(=O)c2snc(C(N)=O)c2N)C(C(=O)NC2CCCC2)c2ccco2)cc1 (stereo not given) | 5.5 | -9 | -0.6 | 20 | . | . | 5 | -1 | 1.2 | .
CC(C)c1ccccc1NC(=O)C1C2C=CC(C2)C1C(=O)O (stereo not given) | 24* | -2 | -16 | -4 | 6% | -0.6 | 5 | 6 | 4.2 | -3
O=C(CCn1c(=S)[nH]c2ccccc2c1=O)NCCc1ccc(Cl)cc1 | -2.8 | 0 | 0.3 | -3 | -8% | 0.1 | 7 | -8 | -2.5 | 0
COC(=O)C1CN(C(=O)C(C)Oc2ccc(C)c(C)c2)c2ccccc2O1 (stereo not given) | 3.3 | -1 | 0.5 | -25 | 3% | -0.8 | 1 | 0 | -1.3 | -13
COc1cc(OC)cc(C(=O)NCCN2CCOCC2)c1 | 4.9 | -8 | . | -8 | ? | -0.3 | . | . | . | -8
CC(=O)NNC(=O)CCC(=O)Nc1ccccc1 | -1.6 | 15 | . | -12 | 2% | 0.4 | . | . | . | -3
CCC(=O)N1CCN(CCN=CC2=C(O)CC(c3ccc(OC)cc3)CC2=O)CC1 (stereo not given) | -1.7 | 1 | 0.1 | -5 | -3% | -0.5 | 6 | 10 | 2.6 | -4
CC(Oc1ccc(C(=O)c2ccc(F)cc2)cc1)C(=O)N1CCOCC1 (stereo not given) | 3.5 | -10 | -4.4 | -8 | -2% | 2.2 | 1 | -6 | -2.6 | -3
CC(C)(C)c1ccc(S(=O)(=O)CCc2ccccn2)cc1 | 6.2 | 3 | . | 4 | -3% | 1.4 | . | . | . | 2
Cn1cc(C(=O)NCc2cccs2)c(=O)c2cc(S(=O)(=O)N3CCCC3)ccc21 | 0.6 | 7 | -3.2 | 12 | -5% | 0.7 | 12 | 14 | 0.8 | 1

# Structural class: the compounds so far containing four or more nitrogen atoms
canonical_smiles | RanGTP-Imp inh | Calb FLC | MLL AF4-AF9 inh | T cruzi inh | Vif TR-FRET | A1 inh | rRNA inh HTS | rRNA inh HTS OD600 | rRNA inh HTS RFP | Beta apoptosis
COc1ccc(NC(=O)CN(C)C(=O)Cc2n[nH]c(=O)c3ccccc23)cc1 | -2.0 | -2 | -1.2 | -7 | 0% | 1.0 | 11 | 19 | 1.1 | 2
Cc1cc(C)nc(N2N=C(C(C)(C)C)CC2=O)n1 | -0.4 | 12 | -67 | . | 65% | 0.8 | 8 | 3 | -5.0 | -5
CC(=O)c1cccc(N/C=C\c2nnnn2-c2ccc(F)cc2)c1 | -2.3 | -4 | . | 6 | -16% | 1.3 | . | . | . | 1
Cc1ccc(C(=O)Nc2nc(N)n(-c3ccccc3)n2)cc1 | 4.5 | -2 | -3.6 | -1 | . | 0.5 | 1 | -18 | 4.0 | -1
CC(=N\NC(=O)c1ccccc1)/C(=N/O)C(=O)Nc1ccccc1 | 0.6 | 4 | 0.9 | -10 | . | -0.3 | -3 | 6 | 7.6 | -3
Cc1ccc(N(C(=O)c2snc(C(N)=O)c2N)C(C(=O)NC2CCCC2)c2ccco2)cc1 (stereo not given) | 5.5 | -9 | -0.6 | 20 | . | . | 5 | -1 | 1.2 | .

# This is a subset. The share of hits here may be higher or lower than overall.
